# Tg IFNy HTS – T. gondii growth inhibition under IFN-gamma; Toxoplasma gondii growth in IFN-gamma-treated host cells; hits give low values; reference of the scale not given here; hit rate 3.8% among 69,000; activity change, negative = inhibition, %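 (about 20 µM by stock and volumes)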;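 active means below -70%; inconclusive means fit judged invalid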;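 further: host cells are HeLa cells infected with Toxoplasma gondii; parasite growth read as luciferase light; one replicate is shown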
# Starred values were filed as active, the others as inactive; i = inactive; ? = inconclusive; & = joins results of further samples. Some of the compounds tested; rates above refer to the full screens.
no.	molecule	Tg IFNy HTS
1	COc1cccc(C2CC(c3ccccc3O)=NC3(CCN(C(C)=O)CC3)N2)c1O (stereo unspecified)	207.0
2	CCCCn1c(SCC(=O)Nc2nc(C)cs2)nnc1-c1ccncc1	-6.7
3	CCOCC(=O)N1CCC2(CCN2Cc2csc(C)n2)C1 (stereo unspecified)	-1.8
4	Cc1ccc2oc(=O)n(CC(=O)NCC3CCN(C(C)C)CC3)c2c1	4.5
5	N#Cc1ccc(-c2ccc([C@@H]3[C@H]4CNC[C@@H]3N4Cc3ccc4c(c3)OCO4)cc2)cc1	-70.6*
6	Cc1ccccc1CN1CC2(CCN(C(=O)Nc3ccccc3)C2)C1	0.3
7	O=C(O)CCN(Cc1ccco1)S(=O)(=O)c1ccc(Cl)cc1	-7.0
8	CC(C)NC1CCc2c(ccc(=O)n2CCn2cccn2)C1 (stereo unspecified)	3.3
9	CCOc1ccc(C(=O)NCCc2sc(-c3cccc(F)c3)nc2C)cc1OCC	73.0
10	CCS(=O)(=O)N1CCc2ncnc(-c3cnn(C)c3)c2CC1	3.2
11	CC(C)NC(=O)N(C)C[C@H]1Oc2c(NS(=O)(=O)c3cccs3)cccc2C(=O)N([C@H](C)CO)C[C@@H]1C	6.0
12	COCC(=O)N1[C@H](CO)[C@H](c2ccccc2)C12CN(C(=O)c1ccccc1)C2	-56.2
13	Cc1cc2c(cc1-c1cncn1CCN(C)C1CCCC1)n(C)c(=O)n2C	8.1
14	O=C(CCc1nc(-c2ccccn2)no1)N1CCc2sccc2C1c1ccco1 (stereo unspecified)	6.7
15	O=C1NCC2(CCCN(C(=O)c3[nH]cnc3-c3ccccc3)C2)O1 (stereo unspecified)	46.1
16	Fc1ccc(-c2cn(-c3ccccc3)c(=Nc3ccccc3)s2)cc1F	?
17	COc1ccc2nc(CCN(C)C(=O)C3CC4(CCNCC4)CN3)[nH]c2c1 (stereo unspecified)	-16.3
18	NCCCCNS(=O)(=O)c1ccc2c(Cl)cccc2c1	-2.9
19	CO[C@@H]1CN(C)C(=O)c2ccc(NC(=O)C3CC3)cc2OC[C@@H](C)N(C(C)=O)C[C@@H]1C	67.7
20	Cc1ccc(CC(=O)c2cccnc2)cc1	14.0
21	Cc1nc2c(c(=O)[nH]1)CN(C(=O)Cn1c3ccccc3c(=O)c3ccccc31)CC2	-42.2
22	O=S(=O)(Nc1ccccc1C1=NCCc2ccccc21)c1ccc(Cl)cc1	-8.1
23	C[C@@H]1CN([C@H](C)CO)C(=O)c2cc(NS(=O)(=O)c3ccc(F)cc3)ccc2O[C@@H]1CN(C)C(=O)Nc1ccccc1	61.7
24	Cc1ccccc1-c1ccc(C2[C@H]3CNC[C@@H]2N3C(=O)Nc2ccc(F)cc2)cc1 (stereo partly specified)	-11.1&27.4

# 3 entries from above, arranged by length of the SMILES, high to low.
no.	molecule	Tg IFNy HTS
23	C[C@@H]1CN([C@H](C)CO)C(=O)c2cc(NS(=O)(=O)c3ccc(F)cc3)ccc2O[C@@H]1CN(C)C(=O)Nc1ccccc1	61.7
21	Cc1nc2c(c(=O)[nH]1)CN(C(=O)Cn1c3ccccc3c(=O)c3ccccc31)CC2	-42.2
18	NCCCCNS(=O)(=O)c1ccc2c(Cl)cccc2c1	-2.9

# Going on with the list.
no.	molecule	Tg IFNy HTS
25	O=C(Cc1ccccc1)N1CC[C@H]2[C@H](CO)Nc3ccc(C#Cc4cccc(F)c4)cc3[C@H]21	-29.6
26	c1ccc(-c2nccc(C3CCCN3)n2)cc1 (stereo unspecified)	-29.7
27	CN1CCN2CCN(Cc3nc4c(s3)CCCC4)CC2C1=O (stereo unspecified)	58.5
28	CO[C@H]1CN(C)C(=O)c2ccc(NS(=O)(=O)c3ccc(C)cc3)cc2OC[C@H](C)N(C)C[C@@H]1C	28.1
29	O=C1NCC(=O)N2CCN(C(=O)CN3CCC(c4ccccc4)CC3)CC12 (stereo unspecified)	1.6
30	CCCC#Cc1ccc2c(c1)[C@@H]1[C@@H](CCN1S(=O)(=O)c1ccccc1C)[C@@H](CO)N2	-5.4
31	N#Cc1cccc(C(=O)N2CCC3C2CCC(=O)N3c2cccnc2)c1 (stereo unspecified)	5.5
32	Cc1cccc2c(CCNC(=O)CN3C(=O)NC(=O)C3(C)C)c[nH]c12	7.3
33	COCCn1c2c(ccc1=O)CC(NC(=O)c1ccc[nH]1)CC2 (stereo unspecified)	30.9
34	COc1ccc(OCCc2cc(C3CCN(C(=O)c4ccccc4)C3)n[nH]2)cc1 (stereo unspecified)	-8.2
35	CCOc1ccc(-c2noc(-c3c(O)c4cccc(Cl)c4n(C)c3=O)n2)cc1	-16.9
36	O=C(c1ccccc1N1CCOCC1)N1CCc2c([nH]c3ccccc23)C1c1ccccn1 (stereo unspecified)	0.2
37	C=Cc1ccc(C(=O)N2CC[C@H](O)[C@@H](O)C2)cc1	-39.9
38	CN1CCn2c(-c3ccc(F)cc3)cnc2C12CCN(C(=O)N1CCOCC1)CC2	-1.9
39	Cc1cc(C(=O)N(C)Cc2ccccc2OCC(C)C)c(=O)[nH]c1C	0.3
40	Oc1ccccc1CN1CCC(c2[nH]ncc2-c2cccc(C(F)(F)F)c2)CC1	-49.9

# A stretch from the list above, for reference:
no.	molecule	Tg IFNy HTS
20	Cc1ccc(CC(=O)c2cccnc2)cc1	14.0
21	Cc1nc2c(c(=O)[nH]1)CN(C(=O)Cn1c3ccccc3c(=O)c3ccccc31)CC2	-42.2

# Next section.
no.	molecule	Tg IFNy HTS
41	CC(c1ccccc1F)n1cc(C(=O)NCCN(C)C)nn1 (stereo unspecified)	-13.9
42	Cc1ccc(CN2C[C@H]3CCC[C@]3(COCC(=O)N(C)C)C2)s1	-2.2
43	COC[C@@]12CCO[C@H]1CCN(C(=O)COc1ccc(C)cc1)C2	5.6
44	COc1ccc(-c2nc(C)c(CCNS(=O)(=O)c3c(C)cc(C)cc3C)s2)cc1OC	15.8
45	CC(C)N(C)Cc1cn2c(n1)CN(Cc1ccc3c(c1)OCO3)CC2	2.6
46	CC(C)C(NC1C=CS(=O)(=O)C1)C(=O)N[C@@H]1CCC(=O)N[C@H]1C1CC=CCC1 (stereo partly specified)	-18.5
47	Cc1noc(C)c1CCNc1ncc(-c2cccs2)c(-c2ccsc2)n1	-19.6
48	c1ccn2cc(CCn3cnnc3)nc2c1	-0.1
49	CCCC(C)NS(=O)(=O)Cc1ccccc1 (stereo unspecified)	-14.3
50	CCN1C(=O)N(CC(=O)N(C(C)C)C(C)C)c2cccnc2N1CC	206.1
51	O=C(CCn1c(=O)oc2ccccc21)Nc1ccc2c(c1)CN(Cc1ccccc1)C2	-5.7
52	O=c1[nH]cc(-c2ccccc2)cc1CNc1cccc(S(=O)(=O)NC2CCCC2)c1	186.8
53	CS(=O)(=O)N1CC[C@@H]2C(=O)N(Cc3cccc(F)c3)CCO[C@@H]2C1	29.8
54	CC1Cc2cc(-c3nccn3CCN3CCNC3=O)ccc2O1 (stereo unspecified)	4.2
55	C[C@H](CO)N1C[C@H](C)[C@@H](CN(C)C(=O)Nc2ccc(C(F)(F)F)cc2)OCCCC[C@H](C)Oc2ccc(NS(=O)(=O)c3cn(C)cn3)cc2C1=O	143.5
56	COc1ccccc1-n1c(=O)n(Cc2nc(-c3ccc(OC(C)C)cc3)oc2C)c(=O)c2cccnc21	16.2
57	CCC(=O)OCCn1c(=O)c2ccccc2c2ccccc2c1=O	-38.8
58	O=C(NCc1cc(F)cc(F)c1)[C@H]1[C@H](CO)[C@H]2Cn3c(cccc3=O)[C@@H]1N2	-3.4
59	Cc1oncc1C(=O)N1CCC2C1CC(=O)N2c1cnn(C)c1 (stereo unspecified)	-18.2
60	CC1CCC(NC(=O)Cn2c(=O)ccc3cc(S(=O)(=O)N4CCC(C)CC4)ccc32)CC1 (stereo unspecified)	-68.3
61	CCCNC(=O)Nc1ccc2c(c1)OC[C@@H](C)N(Cc1cncnc1)C[C@@H](C)[C@H](OC)CN(C)C2=O	-43.8
62	COc1ccc(S(=O)(=O)N(C)C[C@@H]2Oc3ccc(N(C)C)cc3CC(=O)N([C@@H](C)CO)C[C@H]2C)cc1	-20.6
63	Cc1cc(C)n(Cc2ccc(C(=O)N(C)Cc3snnc3C)cc2)n1	-29.6
64	CCN1CCOC(=O)C1CC(=O)Nc1cccc(C)c1 (stereo unspecified)	-8.7
65	Cc1cc(C)cc(NC(=O)COc2nc(C)nc3ccccc23)c1	-9.7
66	CCOc1ccc(Nc2nc(-c3nnc(-c4ccccc4)o3)nc3ccccc23)cc1	i
67	CC(C)NC(=O)N1CCC2(CC1)CC1(CCN(Cc3cccnc3)CC1)C(=O)N2C	4.5
68	c1ccc(-c2csc3ncnc(N4CCCN(c5nc6ccccc6s5)CC4)c23)cc1	?
69	C[C@@H]1CN([C@H](C)CO)S(=O)(=O)c2ccc(C#Cc3cccc(F)c3)cc2O[C@H]1CN(C)S(=O)(=O)c1cn(C)cn1	-68.0
70	C[C@H](CO)N1C[C@H](C)[C@@H](CN(C)Cc2ccc3c(c2)OCCN3C)OCc2cnnn2CCCC1=O	282.6
71	C=CCN(Cc1ncc[nH]1)Cc1ccccc1OC	0.2
72	CCOC(=O)c1ccc(Nc2nnc(-n3nc(C)cc3C)c3ccccc23)cc1	-84.5*

# Structures from the list above that contain a CF3 group:
no.	molecule	Tg IFNy HTS
40	Oc1ccccc1CN1CCC(c2[nH]ncc2-c2cccc(C(F)(F)F)c2)CC1	-49.9
55	C[C@H](CO)N1C[C@H](C)[C@@H](CN(C)C(=O)Nc2ccc(C(F)(F)F)cc2)OCCCC[C@H](C)Oc2ccc(NS(=O)(=O)c3cn(C)cn3)cc2C1=O	143.5

# Other results:
no.	molecule	Tg IFNy HTS
73	N#CC(C(=O)c1ccco1)c1nc2ccccc2[nH]1 (stereo unspecified)	-0.2
74	CC(C)Cc1ccc(C(C)C(N)=O)cc1 (stereo unspecified)	-4.3
75	COc1cc(OC)cc(-c2noc(-c3nnn(Cc4nc(-c5ccc(C)cc5)oc4C)c3C)n2)c1	-45.9
76	O=C(c1cnc(CN2CCCC2)s1)N1CC(c2cccnc2)C1	-19.2
77	COCCN(Cc1cnn(C)c1)C(=O)c1ccccc1OC(F)F	6.3
78	Cn1c(-c2ccc(CN3CCCC3c3ccccn3)o2)nc2ccccc21 (stereo unspecified)	16.0
79	Cc1nc(N[C@@H](CO)Cc2ccccc2)c2cnn(C)c2n1	-22.9
80	CC(=O)N1CCC2(CC1)CC(NC(=O)[C@H]1CCCO1)c1ccccc1O2 (stereo partly specified)	-8.1
81	COc1ccc(C(=O)NCCc2csc(-c3ccccc3)n2)cc1OC	i
82	CC(C)CN1[C@@H]2CCN(C(=O)c3ccc[nH]3)CC[C@@H]2Oc2ccccc2S1(=O)=O	-10.9
83	CCN(CC)c1cc(-c2cccc(O)c2)nc(N)n1	-22.7
84	Cc1ccc(C(=O)NCCc2csc(-c3ccc(C(F)(F)F)cc3)n2)cc1C	i
85	C[C@H](NC(=O)C[C@@H]1CC[C@@H]2[C@@H](COc3ccc(NS(=O)(=O)c4ccc(Cl)cc4)cc3C(=O)N2C)O1)c1ccccc1	-31.3
86	c1cnc2c(-c3nccn3CCCn3ccnc3)cccc2c1	-1.8
87	Cc1cccc(N2C[C@H]3CN(c4cnn(C)c4)C(=O)[C@@H]3C2)n1	21.9
88	C=C(NC(=O)C(=C)NC(=O)c1csc(C2=N[C@@H]3c4csc(n4)[C@H]4NC(=O)c5csc(n5)[C@H]([C@](C)(O)[C@@H](C)O)NC(=O)[C@H]5CSC(=N5)/C(=C/C)NC(=O)[C@H]([C@@H](C)O)NC(=O)c5csc(n5)[C@]3(CC2)NC(=O)[C@H](C)NC(=O)C(=C)NC(=O)[C@H](C)NC(=O)[C@H]([C@@H](C)CC)N[C@@H]2C=Cc3c([C@H](C)O)cc(nc3[C@H]2O)C(=O)O[C@@H]4C)n1)C(N)=O	-72.4*
89	CCC1=NOC(Cn2cnc(-c3ccccc3)c2CCn2nc(C)cc2C)C1 (stereo unspecified)	0.2
90	Cc1ccc2c(c1C)-n1cccc1C1(CCN(S(=O)(=O)c3ccc(F)c(Cl)c3)CC1)N2	10.2
91	Cc1[nH]cnc1-c1nccn1CC(c1cccnc1)N1CCOCC1 (stereo unspecified)	6.2
92	CCOc1ccc2oc(=O)cc(CN3CCN(Cc4nc(-c5ccc(OC)cc5)oc4C)CC3)c2c1	-51.8
93	Cc1ncc(C(=O)N2CCCC2)c(CC2CCN(C(=O)c3n[nH]c4c3CCCC4)CC2)n1	11.0
94	CC(C)C(=O)N1CCc2nc(-c3cnn(C)c3)nc(N(C)C)c2C1	-11.0
95	O=C1c2ccccc2C(=O)N1CNc1ccc(N2CCOCC2)cc1	15.7
96	O=C(NC1Cc2ccccc2C1)c1ccccc1C1CCNC1 (stereo unspecified)	-43.5
97	Cc1cnc(N2C[C@H](NC(=O)c3nccn3C)[C@@H]3OCCC[C@@H]32)nc1	64.9
98	CN1CCCn2nc(C(=O)NC(c3nccn3C)C3CC3)cc2C1 (stereo unspecified)	-0.3
99	Cn1cc(Cl)c(C(=O)OCC(=O)Nc2ccccc2Cl)n1	-26.8
100	CCN1C(=O)CC2C1CCN2S(=O)(=O)c1cn(C)cn1 (stereo unspecified)	-1.1
101	CC(C)N1CCC(N2CCN(Cc3cccn3-c3ccccn3)CC2CCO)CC1 (stereo unspecified)	14.8
102	CCN1CCC2(CC1)OC(=O)C(C)=C2C(=O)Nc1cccc(Cl)c1	159.3
103	Cc1cccc(C)c1OCc1nnc2c3cnn(C)c3ncn12	20.2
104	Cc1ccc(C)c(NC(=O)CCN2CCC(OCc3cccnc3)CC2)c1	4.4
105	C=CCn1c(=O)c(C(=O)Nc2ccc(C)cc2C)c(O)c2ccccc21	409.0
106	CNC(=O)c1ccc(N2C(=S)N(c3cnc(C#N)c(C(F)(F)F)c3)C(=O)C23CCC3)cc1F	9.1
107	CN(C)C(=O)[C@@H]1C[C@H]2CCN(Cc3cnn(C)c3)C[C@H]2O1	60.7
108	CC(C)(C(=O)N1CCC(C(=O)Nc2ccccn2)C1)c1ccc(F)cc1 (stereo unspecified)	-12.1
109	COc1ccc(CN2CCCN(Cc3ccc(OC)cc3)C2c2cccc(Cl)c2)cc1	-31.4
110	CCn1ncnc1CN1CCC(c2nn(C)c(=O)n2-c2ccccc2)CC1	-74.4*
111	COCCN(Cc1cnn(C)c1)C(=O)c1ccc2c(c1)OCO2	81.2

# Compound activity from PubChem BioAssay.
